Screening data deposited in PubChem BioAssay by Broad Institute.
Tgondii IFNg: inhibitors of Toxoplasma gondii growth with IFN-gamma | Toxoplasma gondii growth in IFN-gamma-treated host cells; stronger effect = lower value; reference of the scale not given here | activity change, negative = inhibition, %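 (about 20 µM by stock and volumes)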 | hit rate 3.8% among 69,000;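 active means below -70%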;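 further: host cells are HeLa cells infected with Toxoplasma gondii; parasite growth read as luciferase light; one replicate is shown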
* marks the source's active call; other numbers are inactive results. The list is partial. The share of hits here may be higher or lower than overall.

`C[C@H](CO)N1C[C@H](C)[C@@H](CN(C)C(=O)Nc2ccccc2)Oc2ccc(NS(=O)(=O)c3ccc(F)cc3)cc2C1=O` gave Tgondii IFNg -24.7.
Screening C[C@@H]1CN([C@@H](C)CO)C(=O)c2cc(NS(=O)(=O)c3cccs3)ccc2O[C@@H](C)CCCCO[C@H]1CN(C)C(=O)c1ccncc1 returned Tgondii IFNg 1.8.
FC(F)(F)c1cccc(CCC2CCCN(Cc3cnc[nH]3)C2)c1 (stereo unspecified) was read as Tgondii IFNg -30.4.
Screening COc1ccc(C(=O)Nc2ccnn2C2CCN(CC3CNC(=O)O3)CC2)cc1 (stereo unspecified) returned Tgondii IFNg -2.1.
Cc1ccc(NC(=O)c2c(O)c3cccnc3n(-c3ccc(F)cc3)c2=O)cc1C was read as Tgondii IFNg -39.3.
For N#Cc1cc(NC(=O)C(=O)O)c(Cl)c(NC(=O)C(=O)O)c1 the results were Tgondii IFNg 19.5.
For O=C(C[C@H]1CC[C@@H](NC(=O)C2CC2)[C@@H](CO)O1)Nc1ccccc1 the results were Tgondii IFNg -20.8.
`CN1C[C@]23CN(C(=O)c4ccn[nH]4)C[C@@H](C[C@H]2S1(=O)=O)O3` gave Tgondii IFNg 2.2.
`COc1ccc(NC(=O)N2CCCCN3[C@@H](CO)[C@H](c4ccc(-c5ccccc5F)cc4)[C@@H]3C2)cc1` gave Tgondii IFNg -18.3.
`CCCN1CC[C@@H]2Oc3ccccc3S(=O)(=O)N(CC(=O)N(C)C)[C@@H]2CC1` gave Tgondii IFNg -10.3.
For O=C(CSc1nnc(Cc2ccsc2)o1)c1ccccc1 the results were Tgondii IFNg -44.0.
For CN(C)C(CNC(=O)c1ccc(-n2cccn2)nc1)c1cccc(Cl)c1 (stereo unspecified) the results were Tgondii IFNg 1.9.

Next section; it opens with the 2 that closed the last part.
For O=C(CSc1nnc(Cc2ccsc2)o1)c1ccccc1 the results were Tgondii IFNg -44.0.
For CN(C)C(CNC(=O)c1ccc(-n2cccn2)nc1)c1cccc(Cl)c1 (stereo unspecified) the results were Tgondii IFNg 1.9.
Screening O=C(NCCc1csc(-c2ccc(F)cc2)n1)c1cccs1 returned Tgondii IFNg -64.5.
`Cc1cc(C)c2oc(C(=O)Nc3ncc(Cc4ccccc4)s3)cc(=O)c2c1` gave Tgondii IFNg -64.7.
O=C(Nc1nc(C23CC4CC(CC(C4)C2)C3)cs1)c1ccccc1 was read as Tgondii IFNg -107.0*.
For O=C(Cn1nc(C(F)(F)F)c2c1CCC2)NCc1cccs1 the results were Tgondii IFNg -11.9.
Cc1ccc(-c2cnc(NC(=O)CCc3c(C)nn4cnnc4c3C)n2C)cc1C was read as Tgondii IFNg 0.3.
`CC(=O)Nc1ccc(Nc2nc(-c3nnc(-c4cccc(Cl)c4)o3)nc3ccccc23)cc1` gave Tgondii IFNg 69.0.
Screening C[C@@H]1CN([C@@H](C)CO)C(=O)c2c(c3ccccc3n2C)-c2ccccc2CO[C@H]1CN(C)Cc1cccc(C(=O)Nc2ccccc2N)c1 returned Tgondii IFNg 4.7.
Screening Cc1nc2ccccc2c2c1C(=O)N(c1ccccc1C(=O)OCC(=O)C(C)(C)C)C2=O returned Tgondii IFNg 24.1.
Screening CCN(CC)c1ncnc2c1cnn2CC(=O)Nc1ccc(Cl)cc1C returned Tgondii IFNg 83.2.
For CCS(=O)(=O)Nc1ccc2c(c1)C(=O)N(C)[C@@H]1CC[C@H](CC(=O)NCCCN3CCOCC3)O[C@@H]1CO2 the results were Tgondii IFNg 2.3.
For CC(C)N(C(=O)CSc1nnnn1-c1ccccc1)C(C)C the results were Tgondii IFNg -39.6.
`O=C(Nc1nc(-c2ccc(OC(F)(F)F)cc2)no1)NN1CCCCC1` gave Tgondii IFNg -41.6.

Looked up one by one from above:
Screening Cc1nc2ccccc2c2c1C(=O)N(c1ccccc1C(=O)OCC(=O)C(C)(C)C)C2=O returned Tgondii IFNg 24.1.
`O=C(Nc1nc(-c2ccc(OC(F)(F)F)cc2)no1)NN1CCCCC1` gave Tgondii IFNg -41.6.
Screening C[C@@H]1CN([C@@H](C)CO)C(=O)c2c(c3ccccc3n2C)-c2ccccc2CO[C@H]1CN(C)Cc1cccc(C(=O)Nc2ccccc2N)c1 returned Tgondii IFNg 4.7.
`CC(=O)Nc1ccc(Nc2nc(-c3nnc(-c4cccc(Cl)c4)o3)nc3ccccc23)cc1` gave Tgondii IFNg 69.0.

An excerpt from further up, as a working copy:
Screening Cc1nc2ccccc2c2c1C(=O)N(c1ccccc1C(=O)OCC(=O)C(C)(C)C)C2=O returned Tgondii IFNg 24.1.
Screening CCN(CC)c1ncnc2c1cnn2CC(=O)Nc1ccc(Cl)cc1C returned Tgondii IFNg 83.2.
For CCS(=O)(=O)Nc1ccc2c(c1)C(=O)N(C)[C@@H]1CC[C@H](CC(=O)NCCCN3CCOCC3)O[C@@H]1CO2 the results were Tgondii IFNg 2.3.
For CC(C)N(C(=O)CSc1nnnn1-c1ccccc1)C(C)C the results were Tgondii IFNg -39.6.
`O=C(Nc1nc(-c2ccc(OC(F)(F)F)cc2)no1)NN1CCCCC1` gave Tgondii IFNg -41.6.

The results go on.
`CCC(=O)N1[C@H](CO)[C@H](c2ccccc2)C12CN(C(=O)c1ccc3c(c1)OCO3)C2` gave Tgondii IFNg 80.2.
Screening Cc1ccsc1-c1nc(CN2CCN(S(N)(=O)=O)CC2)c(C)o1 returned Tgondii IFNg 13.4.
`Cc1ccnc(NCCNC2CCN(CC(C)C)CC2)c1` gave Tgondii IFNg 1.4.
For Cc1cc(-c2noc(C(C)(C)C)n2)no1 the results were Tgondii IFNg -0.5.
Screening Cc1nccc(N2CCC(Cc3cccc(C(=O)O)c3)CC2)n1 returned Tgondii IFNg 9.0.
For CO[C@@H]1CC[C@@H]2CCOc3c(C#N)cccc3C(=O)N(C)CC3(CCCCC3)CC(=O)N(C)C[C@H]1O2 the results were Tgondii IFNg -51.8.
For CN(C)CCN1CCN(C)C2(CCN(C(=O)C3CCCO3)CC2)C1=O (stereo unspecified) the results were Tgondii IFNg -0.8.
Screening CCNC(=O)C[C@@H]1CC[C@@H]2[C@H](COC[C@@H](O)CN2C(=O)c2ccccn2)O1 returned Tgondii IFNg 10.4.
`CC(C)C(=O)NCCc1csc(C2CCN(C(=O)Nc3ccc(F)cc3)CC2)n1` gave Tgondii IFNg -18.3.
Screening O=C(/C=C/c1ccc2c(c1)OCO2)NCc1ccc(F)cc1 returned Tgondii IFNg 2.6.
For COc1cccc(-n2cc(CNC3CCN(S(C)(=O)=O)CC3)cn2)c1 the results were Tgondii IFNg -2.4.
`O=C(CN1CCN(c2ncccn2)CC1)N1N=CCC1c1ccccc1` (stereo unspecified) gave Tgondii IFNg 19.2.
For O=C1CCCN1CCCn1cnc2c([nH]c3ccc(F)cc32)c1=O the results were Tgondii IFNg -20.5.
For CCCNC(=O)c1cc(-c2cnc(-c3cccnc3)nc2)cn1C the results were Tgondii IFNg -90.9*.
`COC(=O)c1ccc(CSc2nc3ccccc3o2)cc1` gave Tgondii IFNg 401.8.
Screening Cc1noc(C)c1C(=O)Nc1cccc(C(=O)NC2CCCCC2)c1C returned Tgondii IFNg 132.6.
`CCOc1ccc(-c2nc(Cn3ccn4nc(-c5ccccc5OC)cc4c3=O)c(C)o2)cc1` gave Tgondii IFNg inactive.
For Cc1ccc(NC(=O)c2nc(Nc3ccc(C)cc3)c3ccccc3n2)cc1 the results were Tgondii IFNg 44.2.
Cc1cc(C)n(CCC(=O)N2CCCC3(C2)NC(=O)c2ccccc2N3)n1 (stereo unspecified) was read as Tgondii IFNg -51.1.
Screening O=C(c1ccccc1F)N1CCN(C(=O)[C@@H]2C[C@@H]3C=C[C@H]2C3)CC1 returned Tgondii IFNg 7.2.
Cc1ccc(CNC(=O)c2cccc3[nH]cc(CN4CCCC4)c23)o1 was read as Tgondii IFNg -41.0.
For CC(=O)N1C(Cn2cccn2)CC2CN(C(=O)C3CCOC3)CCC21 (stereo unspecified) the results were Tgondii IFNg 8.4.
For COc1ccc(N2CC(C(=O)NCc3ccccc3OC)CC2=O)cc1 (stereo unspecified) the results were Tgondii IFNg 11.0.
For CCC(C)N(Cc1ccc(S(=O)(=O)NC)cc1)Cc1ccsc1 (stereo unspecified) the results were Tgondii IFNg -6.2.
Cc1ccoc1C(=O)N1CC[C@@H](c2ccc3c(c2)OCO3)[C@H](O)C1 was read as Tgondii IFNg 51.3.
Cn1nccc1C(=O)C1CCN(C(=O)C2CCCN2S(=O)(=O)c2cccs2)CC1 (stereo unspecified) was read as Tgondii IFNg -1.4.
Screening COC(=O)Cc1nc(NC(=O)c2cc(C)oc2C(F)(F)F)sc1C returned Tgondii IFNg 1.8.
`CCN(CC)c1nc2nonc2nc1Nc1cccc(Br)c1` gave Tgondii IFNg -112.0*.
Cc1nc(CN2CC3(CCN(C(=O)C4CC4)CC3)OCC2=O)cs1 was read as Tgondii IFNg 2.7.
CCc1cc(-c2nccn2CCCc2nn[nH]n2)on1 was read as Tgondii IFNg 7.6.
For O=C(O)c1ccc2nc(-c3ccco3)c(-c3ccco3)nc2c1 the results were Tgondii IFNg 34.4.
Cc1cc(C)n(CCCC(=O)Nc2nnc(-c3ccccc3F)s2)c(=O)n1 was read as Tgondii IFNg 3.7.
O=C(C(c1ccccc1)c1ccccc1)N1CCN(CC(O)COc2cccc3ncccc23)CC1 (stereo unspecified) was read as Tgondii IFNg 2.4.
CO[C@@H](CN(C)C(=O)C1CCOCC1)[C@H](C)CN([C@@H](C)CO)S(=O)(=O)c1ccccc1 was read as Tgondii IFNg -48.1.
For COCC(c1ccccn1)N(C)C(=O)c1cnc(-c2ccccc2)nc1 (stereo unspecified) the results were Tgondii IFNg 2.7.
For O=C(CCC1CCCN(C(=O)c2cc3ccccc3oc2=O)C1)NCc1ccccc1F (stereo unspecified) the results were Tgondii IFNg 16.8.
Screening COc1cncc(C(=O)Nc2cc(OC)ccc2OC)c1 returned Tgondii IFNg 77.4.
Screening Nc1nc(Sc2cccs2)cc(N2CC[C@H](CO)[C@H](O)C2)n1 returned Tgondii IFNg 157.1.
`O=C(Nc1cccc(F)c1)N1CCCCN2[C@H](C1)[C@H](c1ccc(C#Cc3cccnc3)cc1)[C@@H]2CO` gave Tgondii IFNg -59.7.
For O=C(CCNC(=O)C(=O)N1CCCCCC1)Nc1ccccc1F the results were Tgondii IFNg 5.2.
`O=C(CCC1CCCC1)Nc1ccc(-c2nc(-c3ccccc3)co2)cc1` gave Tgondii IFNg 157.0.
For CCCCN(C)C(=O)c1ncn2c(C3CCN(Cc4cccnc4)CC3)ccnc12 the results were Tgondii IFNg -20.3.
Screening Cc1cc(C(=O)NC2CCC3(CCC(=O)N3)CC2)no1 (stereo unspecified) returned Tgondii IFNg 0.4.
For Cc1ccc(-c2coc(-c3ccc(NS(=O)(=O)c4ccc5c(c4)n(C)c(=O)n5C)cc3)n2)c(C)c1 the results were Tgondii IFNg -30.4.
Cc1cc2c(NC(=O)Nc3ccccc3)cccc2nn1 was read as Tgondii IFNg 117.4.
For O=C(C1CCC1)N1CC(=O)N2[C@H](C1)[C@@H](c1ccc(Br)cc1)[C@@H]2CO the results were Tgondii IFNg -12.0.
Screening C/C=C/c1cnc2c(c1)C(=O)N([C@H](C)CO)C[C@H](C)[C@@H](CN(C)CC1CCOCC1)O2 returned Tgondii IFNg -55.0.
Screening CCC(=O)Nc1ccc2c(c1)C(=O)N(C)C[C@H](OC)[C@H](C)CN(Cc1nccs1)[C@@H](C)CO2 returned Tgondii IFNg 101.0.
`COc1ccccc1CN1[C@H](CO)[C@@H]2c3ccccc3N(C(=O)C3CCOCC3)C[C@@H]21` gave Tgondii IFNg -4.1.
`Cc1cncc(C(=O)N2CCOC3CC(COc4ccccn4)CC32)c1` (stereo unspecified) gave Tgondii IFNg 0.8.
For O=C(C1CCC1)N1CCc2c([nH]c3ccccc23)C1c1ccc(Cl)cc1 (stereo unspecified) the results were Tgondii IFNg -39.9.
For CC1=C(C(=O)NCCCN2CCCCC2C)C2(CCN(S(C)(=O)=O)CC2)OC1=O (stereo unspecified) the results were Tgondii IFNg -7.7.
For COC(=O)[C@@H]1C[C@@H](N(C)C)CN1C(=O)c1ccc2ncsc2c1 the results were Tgondii IFNg -5.6.
Cc1cccc(Oc2cnc(=O)[nH]c2)c1 was read as Tgondii IFNg 11.2.
Screening COc1cccc(NC(=O)Nc2ccc3c(c2)C(=O)N(C)C[C@@H](OC)[C@@H](C)CN[C@@H](C)CO3)c1 returned Tgondii IFNg -66.6.
`Cc1ccc(CN2CCC3(CCC3NS(=O)(=O)c3ccccc3)CC2)s1` (stereo unspecified) gave Tgondii IFNg -16.1.
For S=C(SCc1ncon1)N1CCOCC1 the results were Tgondii IFNg -30.7.
Screening C[C@@H]1CN([C@H](C)CO)C(=O)CCCn2nncc2CO[C@H]1CN(C)S(=O)(=O)c1ccc(Oc2ccccc2)nc1 returned Tgondii IFNg 100.6.
`O=C(Cn1ncc2c(N3CCCC3)ncnc21)Nc1ccccc1C(F)(F)F` gave Tgondii IFNg 103.1.
Screening COCCN1C(=O)N(CCc2ccccc2)C(=O)C12CCN(Cc1cccc3cccnc13)CC2 returned Tgondii IFNg 24.9.
`Cc1ccc(CNC(=O)N2CCC3(CC2)Nc2cc(F)ccc2-n2cccc23)cc1` gave Tgondii IFNg inactive.
`Cc1oncc1C(=O)N1Cc2nccn2CC(CN2CCCC2)C1` (stereo unspecified) gave Tgondii IFNg -0.6.
Screening Cn1nc(CN2CCCCC2)c2c1CN(C(=O)Nc1ccccc1)C2 returned Tgondii IFNg 0.5.
Screening O=C(c1ncoc1C1CC1)N1CCOC(c2ccc(Cl)c(Cl)c2)C1 (stereo unspecified) returned Tgondii IFNg -30.5.
Screening Cc1cc(C)cc(C(=O)NCCc2sc(-c3ccc(Cl)cc3)nc2C)c1 returned Tgondii IFNg -48.7.
Screening Cc1nn(C)cc1NC(=O)C[C@H]1CC[C@@H]2[C@H](COc3ccc(NC(=O)C4CCOCC4)cc3C(=O)N2C)O1 returned Tgondii IFNg -4.1.
For Cn1cc(C[C@@H]2[C@H](N3CCOCC3)CCN2c2ncc(F)cn2)cn1 the results were Tgondii IFNg 26.9.
Screening COc1ccc(NC(=O)c2ccc(-n3c(C)ccc3C)cc2)c(OC)c1 returned Tgondii IFNg 13.8.
For COc1ccc(CN2CCC(=O)NC2=O)cc1 the results were Tgondii IFNg 20.6.
